# Source: PubChem (several laboratories)
# Mtb hypoxia inh = PubChem AID 1159583 | M. tuberculosis hypoxia-regulated fluorescent reporter, fluorescence | fluorescence inhibition, % (concentration not given with the values) | actives 0.1% (n = 300,000);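 active = 35 to 45% if threefold the growth effect, above 45% if 1.5-fold the growth effect; inactive = the rest, general growth blockers included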;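 also: wells of about 50 µL received 100 nL stock; 0% = vehicle wells and 100% = reference inhibitor wells; whole bacteria with a GFP reporter of the hypoxia response; strong numbers were not always called active; many hits fall short of the cut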
# PrP 5UTR inh = inhibition of PrP 5' UTR reporter expression; cell-based PrP 5' UTR mRNA reporter, plate reader; actives 0.35% (n = 340,000); inhibition, % (no concentration beside the values); AID 488862, 2010;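 active = every replicate at 50% or more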;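 also: 0 = median of the neutral control wells; tested in H4 reporter cells; numbers are from one replicate; inactives centre near -14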
# Autofluor counter = flagged as autofluorescent in microsphere protease counterscreen | compound autofluorescence counterscreen, microsphere flow cytometry; stronger effect = higher value | fluorescence intensity (test concentration not listed) | actives 3.1% (n = 360,000) | AID 624483;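 active = at least 3 SD above the mean of all compounds, about 16000 in these data; inconclusive = too few beads counted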;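 also: 100 nL of 1 mM stock went into each well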
# ugtP null kill = growth inhibition of ugtP-null S. aureus, primary screen, RN4220 ugtP deletion, OD600; growth inhibition, % (test concentration not listed); 16 h; some inactives read as strong as hits; actives 0.54% (n = 330,000);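 active = z-score under -3 and OD600 up to 0.15 on both plates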;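 also: plate controls were untreated wells for no effect and antibiotic for full effect; wells of about 80 µL received 100 nL stock; the first replicate is given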
# Sa RN4220 lethal = growth inhibition of S. aureus RN4220, primary screen, OD600. 16 h. inhibition, % (test concentration not listed). actives 0.33% (n = 330,000);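 active = z-score of -3 or lower and OD600 up to 0.18 on both plates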;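 also: plate controls were untreated cells for no effect and reference antibiotic for full effect; stock transfer was 100 nL into about 80 µL; one replicate is shown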
# BJeLR viability = MLPCN primary cell-based screen for lethality selective to Ras in HRASV12 cells. actives 0.17% (n = 300,000). inhibition, % (test concentration not listed). AID 1554, 2009. BJeLR (HRASV12) viability, CellTiter-Glo ATP luminescence, 48 h; reference of the scale not given here;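 active = replicate mean above 50%; inconclusive = above 50% but judged a plate artefact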;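 also: 50 nL library stock added to about 25 µL; numbers are from one replicate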
# Mtb hypoxia inh growth = further read-out of Mtb hypoxia inh, marked with its call; growth inhibition, %; measured here: M. tuberculosis growth (absorbance);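 0% = vehicle and 100% = reference antibiotic; read after six days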
# The depositor's hits bear a star; u = inconclusive; x = no result given.
SMILES,Mtb hypoxia inh,Mtb hypoxia inh growth,PrP 5UTR inh,Autofluor counter,ugtP null kill,Sa RN4220 lethal,BJeLR viability
CCCN=C1N(C)C[C@@H]2[C@@H]3C(=O)N(Cc4ccccc4)C(=O)[C@@H]3[C@](CC)(C(=O)OC)N12,-16,-4,-1,2933,1,2.5,x
CCCCNC(=O)CCC(=O)NNc1nc2ccccc2c2nc(-c3ccccc3)nn12,1,7,-18,2135,16,3.7,6
C=CCNc1nc(C(=O)OCC(=O)Nc2cccc(SC)c2)cs1,-2,5,-11,6116,-3,-0.6,x
COc1ccc(OC)c(S(=O)(=O)Nc2c(C)cccc2C)c1,3,0,-23,3159,-3,3.8,4
Cc1ccc(NC(=O)CCC(=O)NNC(=O)COc2cccc3ccccc23)c(C)c1,5,3,3,9751,-6,3.2,-3
Cc1nnc(NNS(=O)(=O)c2ccc(Cl)cc2)[nH]c1=O,-4,5,-11,3493,3,3.6,-8
CCCC(=O)N1CCN(c2ccc(NC(=O)c3ccc(OCC)c([N+](=O)[O-])c3)cc2)CC1,0,4,-32,3105,-9,-19,-8
CCOC(=O)c1c(NC(=O)CSC(=S)N2CCOCC2)sc(C)c1C,-14,7,-3,2162,-5,4.3,-8
COc1ccc(C(=O)C2CCCN(Cc3cccn3-c3cccnc3)C2)cc1OC (stereo unspecified),2,0,-11,2611,-2,5.8,-5
Cc1cccc2c1nc(-c1ccccc1)n1cnnc21,8,10,-12,8467,3,2.2,1
COc1ccc(/C=N\NC(=O)C2=NNC(=O)C2C)cc1 (stereo unspecified),x,x,-59,4875,x,x,2
CC(Cc1ccc(O)cc1)NCC(O)c1cc(O)cc(O)c1 (stereo unspecified),-5,0,-15,6169,-6,4.2,7
N#Cc1cn(CCOC(=O)c2cccc(C(F)(F)F)c2)c(=O)[nH]c1=O,6,9,-18,4767,2,2.8,13
OCC1OC(n2nc3ccccc3n2)C(O)C(O)C1O (stereo unspecified),15,9,-10,9180,2,7.2,-10
CCc1cc2ccc(C)cc2nc1SCC(=O)c1ccc(NC(C)=O)cc1,17,5,-13,11068,8,-8.1,-10
COc1cccc(/C=N/NC(=O)C(=O)NCc2cccnc2)c1OC,x,x,-19,4363,x,x,6
COc1ccc(/C=N/OC(=O)Nc2ccccc2)cc1[N+](=O)[O-],x,x,-27,2029,x,x,-6
CC(C)CC(=O)N1CCN(C(=O)c2ccco2)CC1,14,4,-5,4356,12,2.5,2
COc1c2c(cc3c1OCO3)CC[N+](C)=C2,x,x,-15,5267,0,-0.9,-10
CCC(C)(C)NC(=O)CN(C(=O)CCC(=O)Nc1nccs1)c1cccc(C)c1,10,5,-28,3757,-7,4.7,-5
Cc1cc(-n2c(C)cc(C(=O)COc3ccc4ccc(=O)oc4c3)c2C)no1,6,2,-20,12223,5,1.4,-3
COc1cccc(NC(=O)CSc2ccc3nnc(-c4ccccn4)n3n2)c1,5,10,-23,5410,-3,1.1,-2
O=C(Nc1ccc(-c2nc3ccccc3o2)cc1)c1ccc(N2C(=O)C3C4C=CC(C4)C3C2=O)cc1 (stereo unspecified),0,2,-17,5882,-9,10,8
COc1ccc2c(c1)c(/C=N/Nc1ccc(C(=O)O)cc1)c(C)n2C,x,x,-20,4476,x,x,0
CN1C2CCCC1CC(NC(=O)c1nn(C)c3ccccc13)C2 (stereo unspecified),5,3,x,x,1,1.7,x

# (cont.)
SMILES,Mtb hypoxia inh,Mtb hypoxia inh growth,PrP 5UTR inh,Autofluor counter,ugtP null kill,Sa RN4220 lethal,BJeLR viability
COc1ccc(-n2nnc3c(SCC(=O)c4ccccc4)ncnc32)cc1,7,8,-13,x,0,-0.2,-9
CNC(=O)/C(C#N)=C/c1cc(C)n(-c2ccc(N3CCOCC3)cc2)c1C,4,10,-84,4647,1,-0.5,0
O=c1c(-c2nc3ccccc3s2)cccn1Cc1ccccc1,16,24,-76,22734*,9,-2.6,3
O=C(Nc1cccc(Cl)c1)Nc1ccccc1NS(=O)(=O)c1cccs1,10,10,-25,2204,-6,-8.8,-4
O=C(N/C(=C\c1ccc([N+](=O)[O-])cc1)C(=O)N1CCOCC1)c1ccccc1,15,8,-16,3947,5,4.1,3
CCCN1C(=O)/C(=C\C=C2/C=CN(CC)c3ccccc32)SC1=S,14,3,-2,6174,-7,-0.8,22
CCN(C(=O)CSc1nnc(Nc2ccccc2C)s1)C1CCS(=O)(=O)C1 (stereo unspecified),4,5,-8,2078,5,4.8,0
O=C(Nc1ccc2nc3n(c(=O)c2c1)CCCC3)c1cccc([N+](=O)[O-])c1,4,-3,-31,8616,8,5.2,15
CCCC1(C(=O)OCC)NC(c2ccc(OC)cc2OC)C2C(=O)N(c3ccccc3)C(=O)C21 (stereo unspecified),x,x,-23,2520,2,0.2,6
Cc1ccc(C(=O)Nn2cnnc2)cc1S(=O)(=O)N1CCOCC1,-6,4,-9,3991,-3,-5.8,5
Cc1nc2ccc(C(=O)Nc3ccc4nc[nH]c4c3)cc2[nH]1,13,8,-14,3436,10,1.3,2
COc1ccc(N2C(=O)CSC2c2ccccc2)cc1 (stereo unspecified),12,3,-10,3374,3,1.9,4
Cc1ccc2cccc(OCC(=O)NCCC3=CCCCC3)c2n1,14,14,23,6363,4,7.0,x
Cc1ccc(NC(=O)CCC(=O)NNC(=O)NC2CCCCC2)c(C)c1,9,3,-18,4450,4,7.3,0
CCC(c1ccccc1)c1nnc(NC(=O)c2ccco2)s1 (stereo unspecified),3,3,x,5773,-3,3.8,0
COc1ccc(CCNC(=O)COC(=O)/C=C/c2cc(OC)c(OC)c(OC)c2)cc1OC,1,11,-15,3567,12,0.2,x
Cc1ccccc1OCC(=O)NNC(=O)C1CCCCC1C(=O)O (stereo unspecified),8,3,-13,2456,5,6.0,-10
O=C(NCc1ccc(F)cc1)c1cccc2c1C(=O)c1ccc(N3CCC(Cc4ccccc4)CC3)cc1S2(=O)=O,6,-11,-12,8272,1,4.4,x
CCOC(=O)C1=C(C)NC2=C(C(=O)C(C(=O)OCC)C(c3ccccc3OC)C2)C1c1ccccn1 (stereo unspecified),x,x,0,2136,10,-5.3,-1
O=C(NCC1CCN(Cc2cccc(Cl)c2)CC1)C1CCCN(c2ncnc3c2nc2n3CCCCC2)C1 (stereo unspecified),3,7,-15,5787,1,5.2,10
O=c1nc(N2CCCC2)nc(Nc2ccccc2)[nH]1,5,4,-17,4550,-4,2.9,-4
COc1ccc(C)c(NC(=O)NCCc2cnc[nH]2)c1,10,4,-10,x,5,1.2,5
C=CCn1c(=NC(=O)c2cccs2)sc2cccc(OC)c21,4,12,-8,3349,24,-7.9,-7
CCOC(=O)C(C#N)=CC(C(=O)OCC)=C(N)N1CCN(c2ccccc2)CC1,7,14,x,x,0,6.7,x
O=[N+]([O-])c1ccc(NC(=S)NCCc2ccccc2)cc1,2,18,-21,2193,-31,9.4,-6

# Copied from the list.
# `Cc1ccc(C(=O)Nn2cnnc2)cc1S(=O)(=O)N1CCOCC1` in Sa RN4220 lethal = -5.8
# `Cc1ccccc1OCC(=O)NNC(=O)C1CCCCC1C(=O)O` (stereo unspecified) in ugtP null kill = 5
# `CCOC(=O)C(C#N)=CC(C(=O)OCC)=C(N)N1CCN(c2ccccc2)CC1` in Mtb hypoxia inh = 7

# Other structures
SMILES,Mtb hypoxia inh,Mtb hypoxia inh growth,PrP 5UTR inh,Autofluor counter,ugtP null kill,Sa RN4220 lethal,BJeLR viability
O=c1cnn(-c2ccc(Cl)cc2Cl)c(-c2ccccc2)c1,x,x,-10,4293,x,x,0
CCCOc1ccc(C(=O)Nc2cc(S(=O)(=O)N3CCOCC3)ccc2N2CCOCC2)cc1,3,6,x,u,4,2.3,x
O=C(COC(=O)c1ccc([N+](=O)[O-])s1)Nc1cccc(S(=O)(=O)NC2=NCCCCC2)c1,3,-1,-12,3673,20,26,7
Cc1ccc(CSc2nnc([C@@H]3CCCN3C(=O)OC(C)(C)C)o2)cc1,3,8,-7,4218,0,2.8,-3
COc1ccc(CCNC(=O)c2cccc(S(=O)(=O)N3CCCC3)c2)cc1OC,10,5,-9,7930,4,4.2,x
CN(Cc1cn(C)nc1-c1ccccc1F)C1CCOC1 (stereo unspecified),-3,-4,-1,4552,6,1.5,0
CCC(=O)Nn1cnc2c(c1=O)C1(CCCCC1)Cc1ccccc1-2,x,x,8,4563,-1,0.3,1
CCCC(=O)Nc1cccc(-c2nc3ccccc3o2)c1,x,x,-32,2974,-5,-1.2,3
Cc1nn(C)c(C)c1CN(Cc1nc(-c2ccc(F)cc2F)oc1C)C1CC1,-10,2,-12,4282,-1,3.1,7
C/C(=N\OCC(=O)Nc1cc(C)cc(C)c1)c1ccc2c(c1)OCCO2,x,x,-9,2410,x,x,-4
Cc1ccc(SCc2c(C(=O)NN=Cc3cccnc3)nnn2-c2nonc2N)cc1,20,14,x,x,12,6.0,x
CN(CC(=O)Nc1cccnc1)S(=O)(=O)c1ccc(Br)cc1,11,5,-16,5458,3,2.6,-9
O=[N+]([O-])c1ccc(NN=Cc2ccccc2)nc1,25,7,-126,2851,0,1.1,x
CC1C(=O)N2CCCc3cc(NC(=O)c4ccccc4C(F)(F)F)cc1c32 (stereo unspecified),5,8,-10,x,3,3.5,1
Cc1cc(C(=O)Nc2nnc(-c3ccccc3)s2)no1,21,4,-21,2476,-5,2.0,9
N#CC1=C(N)Oc2n[nH]c(-c3ccccn3)c2C1c1c(F)cccc1Cl (stereo unspecified),7,6,-8,2453,14,18,0
Cc1cc(C(=NO)C(C)(C)NO)ccc1Cl,-6,-2,x,x,4,2.4,x
COC(=O)C1=C(C)NC(C)=C(C(=O)OC)C1c1ccc(-c2cc(Cl)ccc2Cl)o1,-7,-4,-73,2030,-5,7.9,5
O=[N+]([O-])c1ccc(C[n+]2ccccc2)cc1,6,2,-6,3007,-1,2.5,0
CC(=O)C1=C(O)C(=O)N(c2cc(C(C)(C)C)on2)C1c1ccc(C(C)C)cc1 (stereo unspecified),0,3,-16,9189,-3,10,4
O=C(NCC(c1cccs1)N1CCOCC1)c1cn(-c2ccccc2)nc1-c1ccc(Cl)cc1 (stereo unspecified),3,3,-32,6110,3,1.1,-4
CCOC(=O)CN1N=C(/C=C/c2ccc(OCC)cc2)CCC1=O,-7,5,-28,2310,20,-3.7,-7
O=C1/C(=C\c2ccccc2)C2OCC=C3CN4CCC56c7ccccc7N1C5C2C3CC46 (stereo unspecified),x,x,-15,4356,x,x,41
C=CCN(CC=C)CCCOc1ccc(Br)cc1Cl,3,-5,-17,3007,13,0.3,0
CCCSc1nc2c(c(=O)n(C)c(=O)n2C)n1Cc1ccc(C)cc1,-3,15,-9,3242,-2,-3.0,-3

# A draw from above in order of molar mass, lowest first:
SMILES,Mtb hypoxia inh,Mtb hypoxia inh growth,PrP 5UTR inh,Autofluor counter,ugtP null kill,Sa RN4220 lethal,BJeLR viability
COc1ccc(CCNC(=O)COC(=O)/C=C/c2cc(OC)c(OC)c(OC)c2)cc1OC,1,11,-15,3567,12,0.2,x
CCCOc1ccc(C(=O)Nc2cc(S(=O)(=O)N3CCOCC3)ccc2N2CCOCC2)cc1,3,6,x,u,4,2.3,x
O=C(NCc1ccc(F)cc1)c1cccc2c1C(=O)c1ccc(N3CCC(Cc4ccccc4)CC3)cc1S2(=O)=O,6,-11,-12,8272,1,4.4,x

# Remaining list, next part:
SMILES,Mtb hypoxia inh,Mtb hypoxia inh growth,PrP 5UTR inh,Autofluor counter,ugtP null kill,Sa RN4220 lethal,BJeLR viability
O=C(COC(=O)c1ccc(O)cc1O)c1ccc(Cl)cc1,13,5,-60,5476,-6,7.4,-7
Cc1cccc(NC(=O)C2CC(O)CN2C(=O)OCc2ccccc2)c1 (stereo unspecified),19,-15,-11,2904,-14,-17,10
COc1ccc(C2=NS(=O)(=O)N(C)C(C(=O)N3CCCCC3)=C2)cc1OC,11,9,-28,5842,2,-11,-3
CSc1nc2nc3c(cc2c(=O)n1-c1ccc(C)cc1)COC(C)(C)C3,-1,-1,11,3150,8,-0.5,9
COc1ccc(NS(=O)(=O)c2ccc(O)c(NC(=O)c3ccc(S(=O)(=O)N4CCCCCC4)cc3)c2)cc1,1,6,-28,9814,7,12,15
Cc1nc2cc(NC(=O)NC(C)(C)C)ccc2n1C,12,4,-30,2241,9,0.7,-2
CCS(=O)(=O)N1CCN(S(=O)(=O)c2ccccc2[N+](=O)[O-])CC1,13,6,-15,4402,3,3.7,2
CCn1c(SCC(=O)C(C)(C)C)nnc1-c1ccccn1,7,1,-32,5314,2,3.2,-5
Cn1cccc1Cc1nnc(SCC(=O)N2CCc3ccccc32)n1CCc1ccccc1,x,x,-21,5867,-5,3.0,4
